# CDC25B-CDK2 inh: human CDC25B-CDK2/CyclinA binding inhibition. P30305+P24941. HTRF CDC25B-CDK2/CyclinA binding, anti-His/anti-Flag; active compounds read high. z-score (no concentration beside the values). actives 0.72% (n = 94,000). AID 1259370;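 note: score is relative to mean and SD of negative controls; strong numbers were not always called active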
# HIV TAR-Tat: HIV-1 TAR-Tat binding disruption | HIV-1 TAR RNA, Tat peptide displacement FRET; active compounds read high | z-score (no concentration beside the values) | actives 0.6% (n = 100,000);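 note: score is relative to mean and SD of negative controls; some compounds called inactive have numbers as strong as hits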
# * marks the source's active call; other numbers are inactive results; / = not tested or not shown.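 Rule for the calls: active = z-score from 3 up in half or more of its runs; inactive = the rest.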
# Start of the listing, in advance, five compounds:
# Each structure is followed by: HIV TAR-Tat	CDC25B-CDK2 inh
COc1ccccc1C1NC(=O)c2n[nH]c(-c3ccco3)c21 (centres undefined)
→ -2.25	0.95
Cc1ccc(S(=O)(=O)NC(c2nc(-c3ccc4c(c3)[nH]c(=O)n4C3CCCC3)no2)C(C)C)cc1 (centres undefined)
→ 0.24	/
Cn1ncc2c(=O)n(CC(=O)Nc3ccc(Br)cc3)cnc21
→ 1.63	0.7
CC1(C)CC(=O)C2=C(C1)OC1=C(C(=O)CC(C)(C)C1)C2c1ccc([N+](=O)[O-])s1
→ /	-1.36
COc1ccc(C2(O)N=C(C(F)(F)F)NC(SC)=C2C#N)cc1 (centres undefined)
→ /	-1.67

# Results, from the first entry:
# Each structure is followed by: HIV TAR-Tat	CDC25B-CDK2 inh
COc1ccccc1C1NC(=O)c2n[nH]c(-c3ccco3)c21 (centres undefined)
→ -2.25	0.95
Cc1ccc(S(=O)(=O)NC(c2nc(-c3ccc4c(c3)[nH]c(=O)n4C3CCCC3)no2)C(C)C)cc1 (centres undefined)
→ 0.24	/
Cn1ncc2c(=O)n(CC(=O)Nc3ccc(Br)cc3)cnc21
→ 1.63	0.7
CC1(C)CC(=O)C2=C(C1)OC1=C(C(=O)CC(C)(C)C1)C2c1ccc([N+](=O)[O-])s1
→ /	-1.36
COc1ccc(C2(O)N=C(C(F)(F)F)NC(SC)=C2C#N)cc1 (centres undefined)
→ /	-1.67
Cc1nn(-c2nc3ccccc3s2)c2c1C(c1ccccc1)CC(=O)N2 (centres undefined)
→ 3.63	-1.87
O=S1(=O)N=CNc2ccc(S(=O)(=O)N3CCC(Cc4ccccc4)CC3)cc21
→ 0.38	/
COc1ccc(N2CCN(CCNc3ncnc4c3cnn4C)CC2)cc1
→ 1.95	/
O=c1ccc(-c2ccc(S(=O)(=O)NCCCN3CCOCC3)s2)n[nH]1
→ 1.7	/
Cc1cccc2c1SC1CCCCC1OC(=O)N2 (centres undefined)
→ /	-1.27

# Overlap with the part before: 2 entries, followed by the next part.
# Each structure is followed by: HIV TAR-Tat	CDC25B-CDK2 inh
O=c1ccc(-c2ccc(S(=O)(=O)NCCCN3CCOCC3)s2)n[nH]1
→ 1.7	/
Cc1cccc2c1SC1CCCCC1OC(=O)N2 (centres undefined)
→ /	-1.27
Cc1c(C(=O)NCCC2=CCCCC2)oc2c1-c1[nH]ncc1CC2
→ 0.75	-1.84
CCOC(=O)C1CCN(C(=O)CSc2nc3ncccc3[nH]2)CC1
→ 0	0.45
O=C(CCC(=O)N1CCSc2ccccc21)Nc1cccc(F)c1
→ 2.05	/
CCOC(=O)C1=C(c2ccccc2)Nc2nc3ccccc3n2C1c1ccc(O)c(OCC)c1 (centres undefined)
→ -0.86	-2.22
CCOC(=O)c1c(C)c(C(=O)N2CCC(C)CC2)c(C)n1C
→ /	-1.63
C=CCNC(=O)c1c(O)c2c([nH]c1=O)CCCC2
→ 2.63	/
O=C(NCCCN1CCCC1=O)C1CCC(Cn2c(=O)[nH]c3ccsc3c2=O)CC1 (centres undefined)
→ 1.68	/
CCOc1ccccc1CN=C1NS(=O)(=O)C(c2ccc(C)c(C)c2)=C1C
→ 1.56	-7.68
COC(=O)Cn1ncn2cccc2c1=O
→ 1.05	-1.17
CNC(=O)c1cc(=O)n(CC(=O)Nc2sc3c(c2C(=O)OC)CCC3)c2ccccc12
→ 8.29*	/
CN(C(=O)c1cc2c(s1)-c1ccc(Cl)cc1S(=O)(=O)C2)C1CCCCC1
→ 2	-3.02
O=C(Nc1ccc(Cl)cc1)c1cc(=O)sc2nc3ccccc3n12
→ -0.76	/
O=S(=O)(Nc1nc2ccccc2nc1Nc1cccc(F)c1)c1ccccc1
→ 4.02	-0.94
COc1ccc2[nH]cc(CCN3CC(C(=O)Nc4nnc(C(C)C)s4)CC3=O)c2c1 (centres undefined)
→ -0.74	0.65
O=S(=O)(c1ccccc1)n1nc(-c2ccccc2)nc1NCc1ccc(F)cc1
→ -0.62	-0.76
COc1ccc(OC2C(=O)N(Cc3ccc(F)cc3)C2c2ccc(OC)c(OC)c2)cc1 (centres undefined)
→ 1.21	-0.41
COc1cccc(CNc2ncnc3onc(-c4cc(F)cc(F)c4)c23)c1
→ 1.5	/
CCOC(=O)c1c(S(=O)(=O)Nc2ccc(OC)c(OC)c2)c(C)n(C)c1C
→ 2.63	/
Cc1cccc(-c2nc(N3CCCC3)c3ccccc3n2)c1
→ /	-1.37
CCn1c(Br)nc2c1c(=O)[nH]c(=O)n2C
→ /	-0.22
Fc1cc(F)cc(Cc2nc(-c3cccs3)no2)c1
→ /	1.41
CCC1Sc2ccc(S(=O)(=O)CCC(=O)N3CCOCC3)cc2NC1=O (centres undefined)
→ -0.36	/
CC1(C)Cc2c(c(N3CCOCC3)nc3sc4c(N5CCCCC5)ncnc4c23)CO1
→ /	-0.87
O=C(CSc1nc2c(c(C(F)(F)F)n1)CCc1ccccc1-2)N1CCOCC1
→ -0.74	-0.96
CC1CC(C)CN(S(=O)(=O)c2ccc3[nH]c4c(c3c2)CCCC4)C1 (centres undefined)
→ -0.76	/
Clc1ccc(SCc2csc(-c3ccno3)n2)cc1
→ /	-1.12
COc1ccc(-c2cc(N)n(S(=O)(=O)c3cccc4nsnc34)n2)c(OC)c1
→ -0.26	-1.11
Brc1cccc2c1CCN(CCc1ccccc1)C2
→ -1.03	-0.65
Cc1nc2nc(CNc3ccccc3F)[nH]n2c(=O)c1C
→ -0.96	-0.7
Cc1ccc(CNS(=O)(=O)c2ccc(N3CCCCS3(=O)=O)cc2)cc1
→ 0.34	/

# Copied from the list.
# CCC1Sc2ccc(S(=O)(=O)CCC(=O)N3CCOCC3)cc2NC1=O (centres undefined) | HIV TAR-Tat = -0.36
# Clc1ccc(SCc2csc(-c3ccno3)n2)cc1 | CDC25B-CDK2 inh = -1.12

# Continuation.
# Each structure is followed by: HIV TAR-Tat	CDC25B-CDK2 inh
Cc1ccc(C(C)C)c(OCc2nc3ccccc3[nH]2)c1
→ 1.84	/
N#CC1=C(N)OC2=C(C(=O)CCC2)C1c1ccccc1Br (centres undefined)
→ /	-1.12
C#CCN1C(=O)C(O)(CC(=O)c2ccccc2)c2cc(Br)ccc21 (centres undefined)
→ -0.02	2.23
COC(=O)/C=C(/c1ccccc1)n1cnc2ccccc21
→ /	-0.59
O=C1CC(Nc2ccc(Cl)cc2)C(=O)N1c1ccc(Br)cc1 (centres undefined)
→ 1.3	/
Cc1ccnc(N2CCC(C(=O)Nc3nccs3)CC2)n1
→ 0.33	/
C=CCc1ccccc1OCc1cc(=O)n2cc(C)sc2n1
→ 1.28	-1.06
Cc1ccsc1CCN1CSC2=C(C#N)C(c3ccc(Cl)cc3)CC(=O)N2C1 (centres undefined)
→ 2.05	3.23*
COC(=O)c1ccc(OC(=O)c2cccnc2)cc1
→ 2.46	0.16
O=C(/C=C/c1ccc(Cl)c(Cl)c1)NCc1cccnc1
→ /	-1.44
O=C(CC1(O)C(=O)Nc2ccc(Br)cc21)c1ccc(F)cc1 (centres undefined)
→ /	-8.21
Brc1ccc(C2C=C(c3cccnc3)Nc3nc4ccccc4n32)cc1 (centres undefined)
→ -0.78	/
N=C1C(c2nc3ccccc3c(=O)[nH]2)=C(O)CN1c1ccc(O)cc1
→ -0.53	-0.52
CN(CCNC(=O)c1cc2c(=O)n(C)c3ccccc3c2n1C)C1CCCCC1
→ /	-0.6
CN1C(=O)CC(N2CCN(C(=O)c3ccccc3)CC2)C1=O (centres undefined)
→ /	-2.12
CCc1ccc(S(=O)(=O)Nc2ccc3c(c2)N(S(C)(=O)=O)CCC3)cc1
→ 1.13	/
CCn1c(SCC(=O)Nc2ccccc2)nnc1-c1nonc1NC(C)=O
→ 0.44	-1.88
Cc1cc(C2CCCCC2)ccc1O
→ 1.06	-2.71
COc1ccc2c(c1)nc(CN1CCCCC1)n2C
→ -0.43	-0.93
CCOc1ccc(-c2cccc(NS(=O)(=O)c3cccc(Cl)c3)c2)nn1
→ 0.64	/
O=C(Cn1cnc2c(nnn2Cc2ccc(Cl)cc2)c1=O)OCc1ccccc1
→ 0.21	-0.21
O=C1C2ON(c3ccccc3)C(c3ccco3)C2C(=O)N1c1ccccc1 (centres undefined)
→ 0.46	1.43
CCC1(C)Cc2ccccc2C(NC(=O)Nc2ccccc2F)=C1C#N (centres undefined)
→ 1.3	0.25
COCCN(Cc1ccco1)C(=O)Cn1ncc2c(=O)oc3ccc(C)cc3c21
→ /	-0.06
C[C@@H](O)[C@H]1C(=O)N2C(C(=O)O)=C(S[C@@H]3CN[C@H](C(=O)N(C)C)C3)[C@H](C)[C@H]12
→ 0.41	/
Cc1ccc(-c2cn3cccnc3n2)cc1NC(=O)c1ccc(F)cc1
→ /	-1.15
CCCCc1nnc(NC(=O)CSCc2cc(=O)n3nc(C(C)C)sc3n2)s1
→ 0	/
COC(=O)C1=C(C)N=C2SCCC(=O)N2C1c1cccc(Cl)c1 (centres undefined)
→ -0.27	-0.55
CCOC(=O)N1CCN(S(=O)(=O)N2CCCC(C(=O)NCCN3CCCC3)C2)CC1 (centres undefined)
→ 1.68	/
Cc1ccc(CN(C(=O)c2sc3ccccc3c2Cl)c2ccccn2)o1
→ 1.79	-2.17
COc1ccc(CNc2nc(-c3cccnc3)nn2S(C)(=O)=O)cc1
→ 1.5	-0.86
O=C(Cc1noc2ccccc12)N1CCCc2ccccc21
→ 0.3	-0.7
Cn1c(=O)n(C)c2cc(N3CCOCC3)c(NS(=O)(=O)c3ccccc3Cl)cc21
→ 0.88	/
CCOc1ccccc1C1C(C(=O)OC2CCCC2)=C(C)NC2=C1C(=O)CCC2 (centres undefined)
→ 0.96	-0.91
COC(=O)C1=C(C)NC(=O)CC1c1cc(OC)c(OC)cc1Br (centres undefined)
→ 1.41	-1.22
CCn1nc(-c2cc(Br)cs2)nc2c(=O)n(C)c(=O)nc1-2
→ 1.29	-0.84
Cn1c(=O)oc2cc(S(=O)(=O)CCC(=O)NCCc3ccc(Cl)cc3)ccc21
→ 1.92	/
C=CCOc1ccc(C2CC(=O)Oc3c2c(=O)n(C)c2ccccc32)cc1 (centres undefined)
→ -0.2	0.4
CC(C)C(O)(c1ccccc1)C(CN1CCOCC1)c1ccccc1 (centres undefined)
→ -0.14	-2.31
Cc1ccc(Cl)cc1-n1ncc2c(Nc3ccc(F)cc3)ncnc21
→ 0.5	/
CC(C)(C)NC(=O)c1nn2c(c1Cl)NC(c1ccco1)CC2C(F)(F)F (centres undefined)
→ -0.09	-2
O=C1N=c2ccc([N+](=O)[O-])cc2=C1c1sc(NS(=O)(=O)Cc2ccccc2)nc1O
→ /	-1.66
O=S(=O)(Nc1nc(SCc2ccc(Cl)cc2)n[nH]1)c1cccs1
→ /	-0.43
CC(=O)N1c2ccc(S(=O)(=O)NCc3cccs3)cc2CC1C (centres undefined)
→ 1.61	/
Cc1ccc(C(=O)N2CCc3cc4cc(C)ccc4nc32)cc1
→ -0.17	-1.19
CC(=O)N1N=C(c2ccc(Oc3ccc([N+](=O)[O-])cn3)cc2)OC1c1ccccc1Br (centres undefined)
→ 0.9	/
COc1ccccc1-c1nc(=S)c2c([nH]1)Oc1c(O)cccc1C2
→ -1.15	-2.36
COc1ccccc1-c1nnc2sc(Cc3ccc(Cl)cc3)nn12
→ 2.52	1.3
O=C(c1ccc(CS(=O)c2ccc(F)cc2)o1)N1CCN(c2ccc(Cl)cc2)CC1 (centres undefined)
→ 1.5	/
Cc1ccc(S(=O)(=O)N(C)c2c(C)ccc(S(=O)(=O)N3CCN(C)CC3)c2C)cc1
→ /	-0.82

# More results follow:
# Each structure is followed by: HIV TAR-Tat	CDC25B-CDK2 inh
Cc1nn(CCCC(=O)N2CCCCCC2)c(=O)c2cc3sccc3n12
→ /	-1.46
COc1ccc(-n2c(SCC(=O)O)nnc2-c2ccc(OC)c(OC)c2)cc1
→ 0.97	-1.07
CCOc1ccc(-c2nc3sc4c(c3c(=O)[nH]2)CCCC4)c2ccccc12
→ /	-5.12
CN(C)c1ccc(-c2nc3n(n2)C(c2cccnc2)C2=C(CC(C)(C)CC2=O)N3)cc1 (centres undefined)
→ 2.75	-0.67
Cc1c(C(=O)N(C)c2ccccc2)sc2nc3n(c(=O)c12)CCCC3
→ 1.91	/
O=C(CC1Oc2ccccc2NC1=O)NC1CCCC1 (centres undefined)
→ 0.72	-0.99
c1ccc(CNc2nc3ccccc3c3nc(-c4ccncc4)nn23)nc1
→ -0.05	-0.97
Cc1ccc(-n2nc3c(c2NC(=O)c2ccc(S(=O)(=O)N4CCCC4)cc2)CS(=O)C3)cc1 (centres undefined)
→ /	0.23
Cc1cc(C)cc(NC(=O)c2cnc3ccc(C)cn3c2=O)c1
→ 0.78	-0.29
Cc1cc(C(=O)Nc2ccc3c(c2)OCCO3)no1
→ /	-2.15
Cc1ccc(C(=O)Cn2c(C)[n+](C)c3ccccc32)cc1
→ 2.07	-1.68
CCC(CC)C(=O)N1CCN(c2nc3cc(Br)ccc3n3cccc23)CC1
→ -1.95	1.44
Cc1nc2sccn2c(=O)c1S(=O)(=O)Nc1ccc(CN2CCOCC2)cc1
→ 0.2	-2.14
CCC1CCCCN1C(=O)CSc1nc2ncccc2[nH]1 (centres undefined)
→ 0.18	/
O=C(Oc1cc2oc(=O)c3c(c2cc1Cl)CCC3)C1CCCCC1
→ /	-2.77
CC1=C(C(=O)NCCCN2CCC(N3CCCCC3)CC2)C2(CCCCC2)OC1=O
→ -0.89	/
Cc1ccc(-c2noc(-c3scc(-c4ccccc4)c3-n3cccc3)n2)cc1
→ 1.56	0.02
CCCCCCC(=O)Nc1c2c(nc3c1CCC3)CCCC2
→ 0.63	1.49
Cn1ncc2c(Nc3ccc(Oc4ccc(Cl)cc4)cc3)ncnc21
→ 1.82	/
CC(C)(C)NCC(O)c1cc(O)cc(O)c1 (centres undefined)
→ -1.29	-1.53
Cc1cc(=O)nc2c3ccccc3n(CC(=O)Nc3ccc(F)cc3F)n12
→ 1.75	-1.45
CC(=O)Nc1ccc(S(=O)(=O)Nc2cccc(-c3nc4ccccc4[nH]3)c2)cc1
→ /	0.61
O=C(NCc1ccccn1)C(=O)Nc1ccc2nc3n(c(=O)c2c1)CCCCC3
→ /	-6.19

# Screening data (PubChem BioAssay)
